# Screening data (PubChem)
# KAT2A inh = qHTS Assay for Inhibitors of GCN5L2 | Potency, µM (top dose mostly 58.9 µM), for inactives: at the highest dose activity change, negative = inhibition, most hits filed as inhibitors | 390,000 tested, 0.21% active | Histone acetyltransferase KAT2A (Homo sapiens), Q92830 | GCN5L2 HAT assay, ThioGlo1 CoA-SH fluorescence; active = well fitted inhibition curve with a large enough effect
# Target sequence (Q92830 whole entry, looked up): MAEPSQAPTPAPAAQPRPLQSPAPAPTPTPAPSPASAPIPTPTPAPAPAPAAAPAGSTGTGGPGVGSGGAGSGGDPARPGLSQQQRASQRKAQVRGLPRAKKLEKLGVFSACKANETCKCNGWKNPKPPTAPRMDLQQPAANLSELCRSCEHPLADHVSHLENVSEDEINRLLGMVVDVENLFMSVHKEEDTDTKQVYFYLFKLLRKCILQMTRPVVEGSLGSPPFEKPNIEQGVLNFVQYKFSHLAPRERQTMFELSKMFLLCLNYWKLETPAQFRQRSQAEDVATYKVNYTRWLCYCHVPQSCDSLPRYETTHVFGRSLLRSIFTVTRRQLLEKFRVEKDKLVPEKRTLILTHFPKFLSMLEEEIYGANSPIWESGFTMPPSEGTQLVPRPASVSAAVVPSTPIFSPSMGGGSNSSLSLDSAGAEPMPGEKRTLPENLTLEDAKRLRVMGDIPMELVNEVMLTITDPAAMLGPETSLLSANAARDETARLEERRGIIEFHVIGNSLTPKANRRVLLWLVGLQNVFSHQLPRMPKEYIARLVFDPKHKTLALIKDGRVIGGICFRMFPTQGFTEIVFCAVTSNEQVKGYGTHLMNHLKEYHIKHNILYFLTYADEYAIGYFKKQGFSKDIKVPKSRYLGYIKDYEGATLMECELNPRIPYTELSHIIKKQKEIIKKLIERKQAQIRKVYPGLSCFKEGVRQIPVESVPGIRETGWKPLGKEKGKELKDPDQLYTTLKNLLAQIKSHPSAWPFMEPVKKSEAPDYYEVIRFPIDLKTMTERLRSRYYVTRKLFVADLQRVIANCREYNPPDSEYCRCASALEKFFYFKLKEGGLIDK
#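 Preincubate 20nM GCN5L2 with compound 15 min, RT → add 50uM ThioGlo1 + 75uM H3(1-25) + 70uM acetyl-CoA → read fluorescence 0 and 20 min. Primary qHTS; fluorescent artifacts likely.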
# * marks the source's active call; other numbers are inactive results; [ ] = another dose, or the depositor's remark. % is set by controls: 0 for no effect and ±100 for the full control effect; potency is the fitted concentration of half-maximal effect. Only part of the results is shown, and most or all hits are left out here.
> Cc1ccc(S(=O)(=O)c2c(N)n(NC(=O)C3CC3)c3nc4ccccc4nc23)cc1
  KAT2A inh = -5%
> Cc1nc2nc(NCc3cccc(Br)c3)[nH]n2c(=O)c1Cc1ccccc1
  KAT2A inh = -10%
> N#CCCN(C(=O)COC(=O)c1cccc(S(=O)(=O)N2CCCC2)c1)c1ccc(F)cc1
  KAT2A inh = -19%
> CCOC(=O)[C@H]1[C@H]2COc3ccc(C)cc3[C@@H]2N2C(=O)c3cc(C)ccc3NC(=O)[C@@]12C
  KAT2A inh = -4%
> Nc1nnc(SCC(=O)c2cccc([N+](=O)[O-])c2)s1
  KAT2A inh = -4%
> Cc1cc(/C=N/n2cnnc2)c(C)n1-c1cccc(Cl)c1
  KAT2A inh = -4%
> CCOC(=O)[C@@H]1[C@H]2COc3ccc(Br)cc3[C@@H]2N2C(=O)N(c3cccc(Cl)c3)C(=O)[C@@]12C
  KAT2A inh = -6%
> CN(C)c1cccc(C(=O)OCC(=O)Nc2ccccc2-c2ccccc2)c1
  KAT2A inh = -7%
> O=C(CCN1CCCCC1)N/N=C/c1ccc(Br)cc1
  KAT2A inh = 0%
> CCCn1ncc(CN2CCC(N3CCC(C(=O)N4CCOCC4)CC3)CC2)c1C
  KAT2A inh = -3%

# Of the compounds above, these have a halogen:
> Cc1nc2nc(NCc3cccc(Br)c3)[nH]n2c(=O)c1Cc1ccccc1
  KAT2A inh = -10%
> N#CCCN(C(=O)COC(=O)c1cccc(S(=O)(=O)N2CCCC2)c1)c1ccc(F)cc1
  KAT2A inh = -19%
> Cc1cc(/C=N/n2cnnc2)c(C)n1-c1cccc(Cl)c1
  KAT2A inh = -4%
> CCOC(=O)[C@@H]1[C@H]2COc3ccc(Br)cc3[C@@H]2N2C(=O)N(c3cccc(Cl)c3)C(=O)[C@@]12C
  KAT2A inh = -6%
> O=C(CCN1CCCCC1)N/N=C/c1ccc(Br)cc1
  KAT2A inh = 0%

# (continued)
> COc1cccc(CN(c2ccc3c(c2)CCC3)S(=O)(=O)c2ccc(-n3cnnn3)c(OC)c2)c1
  KAT2A inh = -3%
> CCOC(=O)c1ccc(NC(=O)CN2C(=O)NC3(CCC(C)CC3)C2=O)cc1 (stereo not given)
  KAT2A inh = 1%
> CS(=O)(=O)c1ccc([C@H](O)[C@H](CF)NC(=O)C(Cl)Cl)cc1
  KAT2A inh = 0%[21.4 µM]
> CC(C)NC(=O)c1onc(CSc2ccc(F)cc2)c1C(=O)NC(C)C
  KAT2A inh = -2%
> CCCCn1c(=O)[nH]c(=O)c2c1nc(-c1ccc(C(F)(F)F)cc1)n2C
  KAT2A inh = -11%
> COc1ccc(CCN(Cc2nc3ccccc3c(=O)[nH]2)C(=O)c2ccco2)cc1
  KAT2A inh = 0%
> CCOC(Cn1c(CCCO)nc2ccccc21)OCC
  KAT2A inh = -2%
> CCCOC(=O)c1ccc(NC(=O)c2c(Cl)ccc(Cl)c2OC)cc1
  KAT2A inh = -13%
> CN(C)CCNS(=O)(=O)c1ccc(Cl)cc1
  KAT2A inh = -3%
> Cc1cc(Br)ccc1NC(=O)C1(S(=O)(=O)c2ccc(Cl)cc2)CC1
  KAT2A inh = -1%

> Cc1ccc(C(=O)NCCCN2CCOCC2)c(C)c1
  KAT2A inh = 3%
> Cc1ccccc1NC(=O)CCC(=O)N/N=C/c1cccnc1
  KAT2A inh = -31%
> COCC(=O)Nc1nnc(SCC(=O)N2CCCCC2)s1
  KAT2A inh = -4%
> O=C(COC(=O)c1cnc(Cl)c(Cl)c1)NC1CCCCCC1
  KAT2A inh = -2%
> COc1ccc(S(=O)(=O)N2CCCCCC2)cc1
  KAT2A inh = -5%
> O=C(c1cc([N+](=O)[O-])ccc1Cl)N1CCN(c2ccc([N+](=O)[O-])cc2)CC1
  KAT2A inh = -10%
> CCCNC(=O)NC(=O)CN1C(=O)NC(C)(c2ccc(C)cc2)C1=O (stereo not given)
  KAT2A inh = -8%
> Clc1cccc(Cl)c1COc1ccccn1
  KAT2A inh = -3%
> Cc1cccc(NC(=O)CCSc2nnc(Cc3ccccc3)o2)c1
  KAT2A inh = -9%
> Cc1cnc(C(=O)Nc2ccc(C(C)C)cc2)cn1
  KAT2A inh = -5%

# Of the compounds above, these have an aryl thioether with sulfur outside any ring.
> Nc1nnc(SCC(=O)c2cccc([N+](=O)[O-])c2)s1
  KAT2A inh = -4%
> CC(C)NC(=O)c1onc(CSc2ccc(F)cc2)c1C(=O)NC(C)C
  KAT2A inh = -2%
> COCC(=O)Nc1nnc(SCC(=O)N2CCCCC2)s1
  KAT2A inh = -4%
> Cc1cccc(NC(=O)CCSc2nnc(Cc3ccccc3)o2)c1
  KAT2A inh = -9%
